Tg IFNy HTS = T. gondii growth inhibition with IFN-gamma, primary screen, cell-based. Toxoplasma gondii growth in IFN-gamma-treated host cells; stronger effect = lower value; reference of the scale not given here. actives 3.8% (n = 69,000). AID 1259416, 2018. activity change, negative = inhibition, %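 (about 20 µM by stock and volumes)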;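 active = below -70%; inconclusive = fit judged invalid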;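 note: host cells are HeLa cells infected with Toxoplasma gondii; parasite growth read as luciferase light; one replicate is shown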
* = called active by the depositor; & = joins results of further samples. These rows are one share of the data (hit frequency here may not be typical).

Cc1ccc(-c2nc(CN3CCN(C(=O)NC4CCCC4)CC3)c(C)o2)cc1 was read as Tg IFNy HTS 2.
For O=C(Nc1cccnc1)c1cncc(NS(=O)(=O)c2ccccc2)c1 the results were Tg IFNy HTS -3.
`C[C@H](CO)N1C[C@H](C)[C@H](CN(C)Cc2ccc3c(c2)OCO3)Oc2ccc(NS(=O)(=O)c3cn(C)cn3)cc2CC1=O` gave Tg IFNy HTS 8.
Screening CCOC(=O)C1(CCc2ccccc2)CCN(C(=O)C2CC(=O)Nc3ccccc32)CC1 (stereo not given) returned Tg IFNy HTS -9.
CN1CCC2(CC1)CN(C(=O)CCCn1cnnn1)CCN2C was read as Tg IFNy HTS 10.
`Cc1oc(-c2ccc(C(=O)NC(C)c3ccccc3)cc2)nc1CN1CCN(c2ccccc2)CC1` (stereo not given) gave Tg IFNy HTS -26.
Screening C[C@H]1CCCCO[C@H](CN(C)C(=O)C2CCCCC2)[C@@H](C)CN([C@@H](C)CO)C(=O)c2cc(NS(=O)(=O)c3ccccc3)ccc2O1 returned Tg IFNy HTS -33.
Cc1ccc2[nH]c(C(=O)N3CCN(c4ccccn4)CC3)c(NC(=O)c3ccc(Cl)cc3)c2c1 was read as Tg IFNy HTS 12.
Screening CCN(CC)S(=O)(=O)c1ccc2c(c1)cc(C(=O)NCc1cccnc1)n2C returned Tg IFNy HTS 46.
COc1ccc(CNc2nc(-c3ccncc3)cc3ncccc23)cc1 was read as Tg IFNy HTS 10.
For CC(C)(O)C#Cc1ccc(C(=O)Nc2cnc3n2CCCC3)o1 the results were Tg IFNy HTS 8.
`COc1ccc(CCCOC(Cn2ccnc2)c2ccc(OC)cc2)cc1` (stereo not given) gave Tg IFNy HTS -83*.
CC(=O)N(OCc1ccccc1)[C@@H]1c2cc(C#N)ccc2OC(C)(C)[C@H]1O was read as Tg IFNy HTS -3&10.
Screening c1ccc(CN2CCC3(CCc4ccccc43)CC2)cc1 returned Tg IFNy HTS -20&32.
`O=C(CCc1ccccc1)N1CCc2c([nH]c3ccccc23)C1c1ccccc1` (stereo not given) gave Tg IFNy HTS -46.
Screening O=C(CN1CCOCC1)N(CC1CCC1)C[C@H]1N[C@H](CO)[C@@H]1c1ccccc1 returned Tg IFNy HTS -12.
For COc1c(C)cc(C(=O)C2CCCN(C(=O)c3[nH]ncc3Cl)C2)cc1C (stereo not given) the results were Tg IFNy HTS -18.
For C=CCO[C@@H]1CCN(C(=O)Cc2ccsc2)[C@H]1Cc1ccncc1 the results were Tg IFNy HTS -5.
CCOC(=O)N1CCC2(CC1)OC(=O)C(C)=C2C(=O)NCCCOC(C)C was read as Tg IFNy HTS 84.
For O=S1(=O)c2ccccc2OCC2(CCN(Cc3ccc(F)cc3)CC2)CN1CC1CC1 the results were Tg IFNy HTS -62.
Screening COc1c(F)cccc1C(=O)NCCc1nnc2n1CCNCC2 returned Tg IFNy HTS 7.
For C[C@@H]1CN([C@H](C)CO)C(=O)Cc2cc(N(C)C)ccc2O[C@H]1CN(C)Cc1ccc(-c2ccccc2)cc1 the results were Tg IFNy HTS 36.
Cc1cc(C)c(S(=O)(=O)NCCc2csc(-c3cccc(F)c3)n2)cc1C was read as Tg IFNy HTS 112.
`CCOc1nc2cccc(C(=O)OC(C)OC(=O)OC3CCCCC3)c2n1Cc1ccc(-c2ccccc2-c2nn[nH]n2)cc1` (stereo not given) gave Tg IFNy HTS 4&3.
`Cc1ccc(-c2nnc(-c3nc(NCCc4ccco4)c4ccccc4n3)o2)cc1` gave Tg IFNy HTS 362.
`Nc1ccnc(N2CC(c3cccnc3)C2)n1` gave Tg IFNy HTS 3.
CC(C)(C)S(=O)(=O)c1ccc(NCCc2c[nH]c3ccccc23)nn1 was read as Tg IFNy HTS -22.
For CN1c2ccc(Br)cc2[C@@H]2[C@@H](CCN2S(=O)(=O)c2ccccc2F)[C@@H]1CO the results were Tg IFNy HTS 14.
Fc1ccc(CN2CCn3cc(Cn4cccn4)nc3C2)cc1 was read as Tg IFNy HTS 0.
Screening CN(C)C(=O)[C@H]1C[C@@H]2OCC[C@@H]2N(CCOc2ccc(Cl)cc2)C1 returned Tg IFNy HTS -7.
`CCOC(=O)c1c(S(N)(=O)=O)c(C)n(-c2ccccc2)c1C` gave Tg IFNy HTS 36.
c1ccc2c(c1)CCC21CCN(c2nncs2)CC1 was read as Tg IFNy HTS 28.
Screening COC(=O)c1c(NCCN2CCCc3ccccc32)c2cc(F)ccc2[nH]c1=O returned Tg IFNy HTS 18.
`O=C(c1n[nH]c2c1CCC2)N1C[C@@H]2[C@H](C1)[C@H]1CC[C@@H]2O1` gave Tg IFNy HTS 4.
Screening CCOC(=O)c1ccc(Oc2ccc(C)nn2)cc1 returned Tg IFNy HTS -15.
For CCN1CCN(C(=S)NCCc2ccccc2)CC1 the results were Tg IFNy HTS 4.
`COC(=O)c1coc(CN2CCC(N3CCCC3=O)CC2)n1` gave Tg IFNy HTS -1.
`CC(C)CNC(=O)Cn1ncc2c(N3CCCCCC3)ncnc21` gave Tg IFNy HTS 77.
For CCc1ccc(S(=O)(=O)N2CCC3(CCCN(Cc4c(C)noc4C)C3)C2)cc1 (stereo not given) the results were Tg IFNy HTS -72*.
For Cc1ccc(-c2c(-c3ccncc3)cnc3cc(C)nn23)cn1 the results were Tg IFNy HTS 1.
`C=CCC1C=CCC(CC=C)N1C(=O)CCC(=O)O` (stereo not given) gave Tg IFNy HTS -23.
`N#C[C@H]1[C@@H](c2ccccc2-c2ccccc2F)[C@H](CO)N1C(=O)C1CCC1` gave Tg IFNy HTS 13.
COc1ccc2c3c(n(C)c2c1)[C@@H](CO)N(C)CC31CN(S(=O)(=O)c2cccs2)C1 was read as Tg IFNy HTS 36.
Screening O=C(CSc1ncnc2c1sc1nc3ccccc3cc12)N1CCCc2ccccc21 returned Tg IFNy HTS 11.
Screening CCOc1cccc(-c2ccccc2-c2nnc(C)o2)c1 returned Tg IFNy HTS 14.
Cc1nc(C(C)N(C)Cc2ccc(Sc3nncn3C)o2)c(C)s1 (stereo not given) was read as Tg IFNy HTS 10.
`CCN1CCC(n2nccc2NC(=O)C(C)(C)Oc2cc(C)ccc2C(C)C)CC1` gave Tg IFNy HTS 31.
Screening CN(C)CC(=O)N1[C@H](C#N)[C@H](c2ccc(C#CC3CCCCC3)cc2)[C@@H]1CO returned Tg IFNy HTS -25.
CCCNC(=O)N1[C@H](CO)[C@@H](c2ccccc2)C12CN(CCC(F)(F)F)C2 was read as Tg IFNy HTS 48.
For CC(=O)NCN1CCN(CNC(C)=O)CC1 the results were Tg IFNy HTS -31.
Screening CO[C@H](CN(C)Cc1ccc(-c2ccccn2)cc1)[C@H](C)CN(C(=O)Nc1ccc(F)cc1)[C@@H](C)CO returned Tg IFNy HTS 82.
CC1CCN(c2ncnc3c2cnn3CC(=O)NCc2ccc(Br)cc2)CC1 was read as Tg IFNy HTS -94*.
CC(C)(C)c1ccc(S(=O)(=O)N2CCc3nc(-c4ccccc4)sc3C2)cc1 was read as Tg IFNy HTS 8.
Screening CCc1ccc(S(=O)(=O)N2CCC3(CC2)NCCN=C3NCc2ccc(Cl)cc2)cc1 returned Tg IFNy HTS -38.
Screening COc1ccc(OCC(=O)Nc2ccc3c(c2)OCO3)cc1 returned Tg IFNy HTS -34.
`COc1cccc(NC(=S)Nc2ccc(Br)cc2Cl)c1` gave Tg IFNy HTS 161.
`O=C(N/C=C/c1cccs1)NCc1ccc(C(F)(F)F)cc1` gave Tg IFNy HTS 58.
For Cn1c(=O)c(-c2nc(-c3ccc(Br)cc3)no2)c(O)c2ccccc21 the results were Tg IFNy HTS 0.
COc1ccc2cc(C(=O)NCc3cccc(Cn4nc(C)cc4C)c3)c(C)nc2c1 was read as Tg IFNy HTS -66.
For COc1cccc(NC(=S)NCc2ccncc2)c1 the results were Tg IFNy HTS 2.

The final two compounds of the part above are carried over, then new ones follow.
COc1ccc2cc(C(=O)NCc3cccc(Cn4nc(C)cc4C)c3)c(C)nc2c1 was read as Tg IFNy HTS -66.
For COc1cccc(NC(=S)NCc2ccncc2)c1 the results were Tg IFNy HTS 2.
COCCC(=O)c1nc(-c2cn(Cc3ccccc3)c(C)n2)n2ccccc12 was read as Tg IFNy HTS 2.
Screening CC1(C)[C@]2(C(=O)NCCCOc3cccnc3)CC[C@@]1(C)OC2=O returned Tg IFNy HTS 23.
`C[C@@H](O)C#Cc1ccc([C@@H]2[C@H](CO)N3CCCCN(C(=O)c4ccc5c(c4)OCO5)C[C@@H]23)cc1` gave Tg IFNy HTS 13.
For NC(=O)c1cnc2n1CCN(C(=O)CN1CCOc3ccccc3C1)C2 the results were Tg IFNy HTS -5.
CN(C)Cc1nn(C)c2c1CN(S(=O)(=O)c1ccc(F)cc1)C2 was read as Tg IFNy HTS -8.
`CCOc1cc(CNCc2ccco2)ccc1OCc1cccs1` gave Tg IFNy HTS 14.
Screening COc1cccc(-c2cc(C(=O)N3CCN4CCN(C)CC4C3)[nH]n2)c1 (stereo not given) returned Tg IFNy HTS -5.
Screening COc1ccc(Cl)cc1-n1cnnn1 returned Tg IFNy HTS 7.
`COCCCN(Cc1ccc(F)cc1)C(=O)Cc1csc(C)n1` gave Tg IFNy HTS -2.
`CCc1ccc2oc(=O)cc(CN3CCN(Cc4nc(-c5ccccc5)oc4C)CC3)c2c1` gave Tg IFNy HTS 10.
`CCn1c(C2CCNCC2)nn(CCSc2ccccc2)c1=O` gave Tg IFNy HTS -13.
For O=C(CN1C(=O)CCc2cc(Br)ccc21)N1CCN(c2ccc(F)cc2)CC1 the results were Tg IFNy HTS 101.

An excerpt from above in order of number of heavy atoms, smallest number first:
Screening COc1ccc(Cl)cc1-n1cnnn1 returned Tg IFNy HTS 7.
`CCn1c(C2CCNCC2)nn(CCSc2ccccc2)c1=O` gave Tg IFNy HTS -13.
For O=C(CN1C(=O)CCc2cc(Br)ccc21)N1CCN(c2ccc(F)cc2)CC1 the results were Tg IFNy HTS 101.

(more compounds)
Nc1nc2c(ccc3[nH]c(=O)c(=O)[nH]c32)s1 was read as Tg IFNy HTS -37.
COC(=O)c1nn(-c2cccc(Cl)c2)cc(OC)c1=O was read as Tg IFNy HTS 57.
For CC(C)[C@@H]1COCc2cn(nn2)CCCCC(=O)N1 the results were Tg IFNy HTS -31.
Screening C[C@@H]1CN(Cc2ccccc2F)CCN1CC(=O)Nc1ccc(N2CCCCCC2)cc1 returned Tg IFNy HTS 444.
CC(C)Oc1ccc(-c2noc(-c3c(O)c4ccccc4n(C)c3=O)n2)cc1 was read as Tg IFNy HTS -26.
COc1cccc(CNC(=O)C[C@@H]2CC[C@@H]3[C@@H](COc4ccc(NS(=O)(=O)c5ccccc5F)cc4C(=O)N3C)O2)c1 was read as Tg IFNy HTS -6.
CCN(Cc1ccncc1)C(=O)CC(=O)Nc1cccc(Cl)c1C was read as Tg IFNy HTS 6.
For COc1ccc(-c2cccc(Cl)c2Cl)nn1 the results were Tg IFNy HTS 5.
For O=S(=O)(NCc1csc2ccc(Cl)cc12)c1ccccc1 the results were Tg IFNy HTS -14.
`N#Cc1sc(C(N)=O)c(-c2ccco2)c1-c1ccco1` gave Tg IFNy HTS -44.
For CN(C)c1cc(NC(=O)CNC(C)(C)C)c(O)c2c1C[C@H]1C[C@H]3[C@H](N(C)C)C(=O)C(C(N)=O)C(=O)[C@@]3(O)C(=O)C1C2=O (stereo not given in full) the results were Tg IFNy HTS 16.
`CN1C(=O)CCc2cc(NC(=O)C3CC3)ccc21` gave Tg IFNy HTS 2.
Screening CCCCC1=NC2(CCN(C(=O)c3cc(C)nn3CC)CC2)C(=O)N1 returned Tg IFNy HTS 3.
`CCOC(=O)C1CCN(c2ccccc2CN2CCN(Cc3ccccc3)CC2)CC1` gave Tg IFNy HTS inconclusive.
Screening CCc1ccc(S(=O)(=O)N2CCC(C(=O)NCCc3csc(-c4ccccc4)n3)CC2)cc1 returned Tg IFNy HTS 8.
For CC(C)C(=O)N1CC2CCC(C1)C2C(=O)Nc1cccc(F)c1 (stereo not given) the results were Tg IFNy HTS 378.
`CCCc1ccc(S(=O)(=O)N2CCc3nc(-c4ccc(OCC)cc4)sc3C2)cc1` gave Tg IFNy HTS 102.
CS(=O)(=O)CC(=O)N1Cc2cncn2CC(COCC2CCC2)C1 (stereo not given) was read as Tg IFNy HTS 1.
For CN(C)c1cncc(-c2cc(O)cc(CCC3CCCCN3)c2)n1 (stereo not given) the results were Tg IFNy HTS -4.
Screening CSc1ccc(C(=O)C2CCCN(Cc3nc4ccccc4nc3C)C2)cc1 (stereo not given) returned Tg IFNy HTS 17.
Screening C[C@@H]1CN([C@@H](C)CO)C(=O)c2ccccc2-c2ccccc2CO[C@H]1CN(C)C(=O)[C@H](Cc1ccccc1)N(C)C returned Tg IFNy HTS -15.
`O=C(CCn1nnc2ccccc21)N1CCCC(Cn2ccnc2)C1` (stereo not given) gave Tg IFNy HTS 0.
Screening CC1C(c2ccc(F)cc2)=NOC1C(=O)NCCc1nc(-c2ccccc2)no1 (stereo not given) returned Tg IFNy HTS -21.
For COc1cccc(C(=O)N2CCN(Cc3ccc(Cn4cccn4)cc3)CC2)c1 the results were Tg IFNy HTS -6.

Structures shown so far containing an aryl thioether with sulfur outside any ring, in the order listed:
Screening O=C(CSc1ncnc2c1sc1nc3ccccc3cc12)N1CCCc2ccccc21 returned Tg IFNy HTS 11.
Cc1nc(C(C)N(C)Cc2ccc(Sc3nncn3C)o2)c(C)s1 (stereo not given) was read as Tg IFNy HTS 10.
`CCn1c(C2CCNCC2)nn(CCSc2ccccc2)c1=O` gave Tg IFNy HTS -13.
Screening CSc1ccc(C(=O)C2CCCN(Cc3nc4ccccc4nc3C)C2)cc1 (stereo not given) returned Tg IFNy HTS 17.

Next section:
Screening CCOC(=O)C1CCCN(C(=O)c2ccc(-c3nc(CN4CCc5ccccc54)c(C)o3)cc2)C1 (stereo not given) returned Tg IFNy HTS 56.
Screening CC(C)=CCC/C(C)=C/C=C/C(C)=C/C=C/C(C)=C/C=C/C=C(C)/C=C/C=C(C)/C=C/C=C(\C)CCC=C(C)C returned Tg IFNy HTS 19.
CC(C)CNC(=O)N1CCC2(COCc3cnc(N4CCOCC4)nc32)C1 (stereo not given) was read as Tg IFNy HTS 5.
Screening Cc1sc(-c2ccsc2)nc1-c1ccc(-c2ccccc2F)cc1 returned Tg IFNy HTS 32.

Compound activity (PubChem BioAssay)
